H5N1 antiviral = MDCK cell protection from H5N1 avian flu | cytopathic effect, luminescence, 72 h; active compounds read high; no value below 0 was filed and about half of the inactive calls have no number; reference of the scale not given here | inhibition, % at 50 µM | hit rate 0.07% among 96,000 | AID 740; in the data active means inhibition above about 25%
* = called active by the depositor; i = inactive. Not all compounds are listed; the hit share may differ from the screen's.

SMILES | H5N1 antiviral
Cc1nn(-c2cc(N3CCCC3)ccc2[N+](=O)[O-])c(=O)c2ccccc12 | 1.2
CCn1c(CSCc2ccc(F)cc2)nnc1SCC(=O)NCc1ccccc1 | 0.2
C=CCNC(=O)CCCOc1cccc(C)c1 | i
COc1ccc(-c2cc(C(F)(F)F)n3nc(C(=O)NCc4ccco4)cc3n2)cc1 | 1.2
CC(C)Sc1ncnc2c1oc1ccccc12 | 4.7
CC1CN(C2CCN(C(=O)c3ccccc3Cl)CC2)CC(C)O1 (configuration not stated) | 1.0
Cc1ccccc1-n1c(SCc2c(C)noc2C)nnc1-c1ccncc1 | 1.8
Cc1cc(/C=N/n2cnnc2)c(C)n1-c1cc(Cl)ccc1Cl | 0.9
CC12CS(=O)(=O)CC1SC(=S)N2c1ccccn1 (configuration not stated) | i
O=C(NCCn1ccc2ccccc21)C1CCCCC1 | i
CCOC(=O)c1sc(C)c(C(=O)NC2CCCCC2)c1N | 1.0
O=c1cc(CSc2nc3cc(Cl)ccc3o2)nc2sccn12 | i
CCOC(=O)Cc1csc(NC(=S)NC(=O)c2ccccc2C)n1 | 0.6
Cc1ccccc1S(=O)(=O)Cc1ccc(C(=O)NC(C)c2ccc3c(c2)OCCO3)o1 (configuration not stated) | 1.6
CCCCCCNC(=O)c1c(O)c2ccccc2[nH]c1=O | i
O=c1[nH]c2ccc(Cl)cc2c(O)c1-c1ccccc1 | i
Cn1c(=S)[nH]c2cccnc21 | 0.6
Cc1cc(C)n(C(=O)CN2C(=O)c3ccccc3C2=O)n1 | i
O=C(NNS(=O)(=O)c1ccccc1)c1ccncc1 | i
CCOC(=O)C(NC(=O)CC)(Nc1ccc(S(=O)(=O)Nc2onc(C)c2C)cc1)C(F)(F)F (configuration not stated) | 0.7
COc1ccc(C2C(C(=O)N3CCC4(CC3)OCCO4)c3cc(OC)c(OC)cc3C(=O)N2C)cc1 (configuration not stated) | i
COc1cccc(-c2c(NC(=O)c3ccco3)n(-c3ccc(C)cc3)nc(C)c2=O)c1 | 0.5
Cc1ccc(NC(=O)CN(C)Cc2nc3ccccc3c(=O)[nH]2)c(Br)c1 | i
CNc1nc2[nH]c(=O)c3c(c2s1)OC(N)=C(C#N)C3c1cccc(F)c1 (configuration not stated) | i
CCOc1cc(C(=O)Nc2ccc3c4c(cccc24)C(=O)N3CC)cc(OCC)c1OCC | i
CC(Sc1nnc(NC(=O)c2cc3ccccc3oc2=O)s1)c1ccccc1 (configuration not stated) | i
C/C=C/c1ccc(OCCCNC)c(OC)c1 | i
COc1cc(/C=N/NC(=O)Nc2ccccc2)ccc1OCCOc1ccccc1C | i
O=C(O)CC1C(=O)NCCN1Cc1ccc(F)c(F)c1 (configuration not stated) | 0.8
COc1cc(/C=N/n2cnnc2)ccc1OCc1ccccc1 | i
CNC(=O)CN(Cc1ccccc1)S(=O)(=O)c1ccccc1 | 0.4
Cc1ccc(NC2CC(=O)N(CCc3ccccc3)C2=O)cc1 (configuration not stated) | 1.3
Cc1ccc2cc(C#N)c(N3CCCN(C(=O)C4CCCO4)CC3)nc2c1C (configuration not stated) | 0.3
Cc1nc2nc(C)c(CCC(=O)N3CCC4(CC3)OCCO4)c(C)n2n1 | 0.2
CCOC(=O)c1sc(=NC(=O)c2ccc(S(=O)(=O)N3CC(C)OC(C)C3)cc2)n(C)c1C (configuration not stated) | i
CCN(CC)CCOC(=O)C1(c2ccc(OC)c(OC)c2)CCCC1 | 3.1
Cc1ccc(C(=O)CC2(O)C(=O)N(Cc3ccccc3Cl)c3ccccc32)o1 (configuration not stated) | i
CCOC(=O)Cn1c(C)nc2ccccc21 | 0.1
Cc1c(C)n(CC(O)CN2C(=O)c3ccccc3S2(=O)=O)c2ccccc12 (configuration not stated) | 0.1
c1coc(-c2nnc(SCc3nc4ccccc4[nH]3)o2)c1 | i
CC(=O)Nc1cccc(C(=O)/C=C/c2ccco2)c1 | 2.0
Cc1cccn2c(=O)c3cc(C(=O)N4CCC5(CC4)OCCO5)n(C)c3nc12 | 0.9
CCOc1ccccc1NC(=S)/C(=C(\[O-])c1ccc2c(c1)OCCO2)[n+]1ccc(CC)cc1 | i
Nn1c(SCc2cn3ccsc3n2)nnc1-c1ccncc1 | i
CCCCSc1nc2c(c(C(F)(F)F)c1C#N)CCC2 | 0.2
CCc1ccc(NC2=NCC(=O)N2Cc2ccc3c(c2)OCO3)cc1 | i
NC(=O)COC(=O)CCCc1c[nH]c2ccccc12 | 0.9
COc1ccc(NC(=O)Cn2nnc(-c3ccccc3N)n2)cc1OC | i
Cc1ccc(C(=O)C2(C)C3c4cc(Br)ccc4OC(=O)C32C(=O)c2ccco2)cc1 (configuration not stated) | i
CCOC(=O)Nc1sc2c(c1C#N)CCCC2 | 1.2
O=C(O)/C=C/c1ccccc1Oc1ccccc1 | i
Cc1cc(N2CCCCC2)nc(SCc2ccc(C#N)cc2)n1 | i
Cc1cc(NC(=O)CSc2nnc(-c3ccc(S(=O)(=O)N4CCCC4)cc3)n2C)no1 | 0.6
CCN1CCN(C(c2ccc(OC)cc2)C(O)C(=O)c2c[nH]c3ccccc23)CC1 (configuration not stated) | 0.1
O=C(NCC1CCCO1)c1c(O)c2cccc3c2n(c1=O)CC3 (configuration not stated) | 1.0
CCn1c(Sc2nc(C)nc3scc(-c4cccs4)c23)n[nH]c1=O | 2.4
COc1ccccc1N(CC(=O)NC1CCCCC1)S(C)(=O)=O | 0.2
O=C(CSc1nc2c(c(=O)n1-c1ccc(F)cc1)SCC2)NCC1CCCO1 (configuration not stated) | 1.2
CC(OC(=O)c1cccnc1SCc1cc(=O)n2ccccc2n1)c1ccccn1 (configuration not stated) | i
COC(=O)C(NC(=O)c1ccc(OC)cc1)(Nc1ncc(S(=O)(=O)c2ccc([N+](=O)[O-])cc2)s1)C(F)(F)F (configuration not stated) | i

Following part:
SMILES | H5N1 antiviral
O=C(NCCc1cn2ccccc2n1)c1ccc(Br)o1 | 1.4
NC(=O)c1c(NC(=O)CSc2nc3c(c(C(F)(F)F)n2)CCc2ccccc2-3)sc2c1CCCC2 | i
CCOC(=O)N1CCC(NC(=O)c2cc3ccccn3n2)CC1 | i
CCOC(=O)CCCNC(=O)COC(=O)c1cc2ccccc2cc1O | i
OC(CN1c2ccccc2Sc2ccccc21)Cn1nnc2ccccc21 (configuration not stated) | 5.5
CCC(=O)Nc1sc(C(=O)N2CCCCC2)c(C)c1C#N | i
CN(Cc1ccccc1)Cc1ccccc1OC(=O)N(C)C | 1.1
Fc1cnc(N2CCOCC2)nc1N1CCc2ccccc21 | i
COc1cc(NC(=O)NCc2ccncc2)cc(OC)c1OC | 0.8
CCCNC(=O)NC(C(=O)OC)C12CC3CC(CC(C3)C1)C2 (configuration not stated) | 0.6
O=c1[nH]c(CN2CCN(c3ccc([N+](=O)[O-])cc3)CC2)nc2ccsc12 | 1.0
Cc1[nH]nc2c1C(c1ccc(F)cc1)C1=C(CC(C)(C)CC1=O)N2 (configuration not stated) | 1.6
CCc1ccc(NC(=S)NC2CC3CCCC(C2)N3Cc2cccs2)cc1 (configuration not stated) | i
O=S(=O)(Nc1ccn(-c2ccccc2)n1)c1ccc(Br)cc1 | 2.5
Nc1nncn1C(=O)CCCN1C(=O)c2ccccc2C1=O | 1.1
COc1cc(/C=c2\sc3n(c2=O)CCCN=3)ccc1O | 2.4
CSc1ccc(CN(C)CC(=O)NC(=O)NC(C)(C)C)cc1 | 0.5
Cc1nc(-c2coc3cc(O)c(C)cc3c2=O)cs1 | 0.2
Cc1ccc(S(=O)(=O)NCc2ccc(C(=O)NCCCN3CCN(C)CC3)cc2)cc1 | i
CSc1nc2sc3c(c2c(=O)[nH]1)CCC(C)C3 (configuration not stated) | i

Part of the list above, reformatted:
Cc1ccc(S(=O)(=O)NCc2ccc(C(=O)NCCCN3CCN(C)CC3)cc2)cc1
  H5N1 antiviral: i
OC(CN1c2ccccc2Sc2ccccc21)Cn1nnc2ccccc21 (configuration not stated)
  H5N1 antiviral: 5.5
CSc1ccc(CN(C)CC(=O)NC(=O)NC(C)(C)C)cc1
  H5N1 antiviral: 0.5
CSc1nc2sc3c(c2c(=O)[nH]1)CCC(C)C3 (configuration not stated)
  H5N1 antiviral: i

Next part.
SMILES | H5N1 antiviral
COc1ccc(C2C(C(=O)Nc3cccc(C)n3)c3ccccc3C(=O)N2C)cc1OC (configuration not stated) | i
COc1ccc(S(=O)(=O)N(C(=O)C(C)C)c2ccc3oc(=O)sc3c2)cc1 | 2.9
O=C1C(Cc2ccccc2)C(c2ccccc2)N1c1ccccc1 (configuration not stated) | 1.4
COc1ccc(NC(=O)c2ncn[nH]2)cc1 | i
CC1=C(C)C(=O)N(CCC(=O)O)C1=O | 0.5
CCOC(=O)CN(C(=O)CSc1nnc2c(n1)[nH]c1ccc(OC)cc12)c1ccc(F)cc1 | i
CCOC(=O)c1cnc2c(C)c(-c3ccccc3)[nH]n2c1=O | i
COc1ccc(S(=O)(=O)NC(C(C)C)C(C)C)cc1OC | i
CS(=O)(=O)c1ccc2nc(NC(=O)CC3CCCC3)sc2c1 | i
O=C(Cn1nnc(-c2ccc(Cl)cc2)n1)NCCC1=CCCCC1 | i
Cn1c(=O)c2c(nc(CN3CCOCC3)n2CC(O)CO)n(C)c1=O (configuration not stated) | 0.6
O=C(Nc1ccn(Cc2ccccc2F)n1)c1ccc(COc2ccccc2Cl)cc1 | i
COc1ccc(OC)c(-n2c(C)ccc2-c2ccc(S(C)(=O)=O)cc2)c1 | i
Cc1noc(NS(=O)(=O)c2ccc(NC(=O)CCC3CCCC3)cc2)c1C | 0.3
Nc1nonc1-c1nc2ccccc2n1Cc1ccc(F)cc1Cl | i
CCCCP(=O)(CCCC)c1ccccc1C(=O)O | i
CC(C)(C)c1ccc(/C=C/C(=O)NC2=NCCS2)cc1 | 0.2
CCC(=O)c1cc2c(cc1NC(=O)c1ccc(C)cc1)OCCO2 | 0.9
COc1cc2[nH]c(=S)n(CCN3CCOCC3)c(=O)c2cc1OC | 3.0
O=C(NC12CC3CC(CC(C3)C1)C2)C1CC(=O)N(c2ccc(Br)cc2)C1 (configuration not stated) | i

Nothing new here: entries from further up.
SMILES | H5N1 antiviral
COc1ccc(S(=O)(=O)NC(C(C)C)C(C)C)cc1OC | i
CS(=O)(=O)c1ccc2nc(NC(=O)CC3CCCC3)sc2c1 | i
O=C(Cn1nnc(-c2ccc(Cl)cc2)n1)NCCC1=CCCCC1 | i
Cn1c(=O)c2c(nc(CN3CCOCC3)n2CC(O)CO)n(C)c1=O (configuration not stated) | 0.6

Returning to the listing with the 6 entries that preceded the break.
SMILES | H5N1 antiviral
Nc1nonc1-c1nc2ccccc2n1Cc1ccc(F)cc1Cl | i
CCCCP(=O)(CCCC)c1ccccc1C(=O)O | i
CC(C)(C)c1ccc(/C=C/C(=O)NC2=NCCS2)cc1 | 0.2
CCC(=O)c1cc2c(cc1NC(=O)c1ccc(C)cc1)OCCO2 | 0.9
COc1cc2[nH]c(=S)n(CCN3CCOCC3)c(=O)c2cc1OC | 3.0
O=C(NC12CC3CC(CC(C3)C1)C2)C1CC(=O)N(c2ccc(Br)cc2)C1 (configuration not stated) | i
CCN(CC)CCN(Cc1cc2cc3c(cc2[nH]c1=O)OCCO3)C(=O)NC1CCCCC1 | 4.1
Cn1nnnc1Sc1ncnc2scc(-c3ccc(F)cc3)c12 | i
Cc1[nH]c2ccccc2c1C1=CCNCC1 | 0.1
O=C(Nc1ccc(Oc2ccccc2)cc1)C1CCN(c2ncccn2)CC1 | i
CCCC(C)C(=O)NCc1ccccc1OC (configuration not stated) | 0.3
Nc1nc2ccccc2n1/N=C/c1ccc(-c2ccccc2)o1 | 1.8
CC(=O)NCCc1cc2ccc(C)c(C)c2[nH]c1=O | 0.9
CCSC1=N/C(=C\c2ccc3c(c2)OCO3)C(=O)S1 | i
Cc1ccc(S(=O)(=O)NC(C)CCc2ccccc2)cc1 (configuration not stated) | 1.2
Cc1oncc1-c1cn2ccccc2n1 | 1.2
CC1(C)Cc2nc3oc4c(N5CCOCC5)ncnc4c3cc2CO1 | 0.3
COc1ccc(Oc2nccc(-c3ccccc3)c2C#N)cc1 | i
c1ccc(-c2cc3c(N4CCOCC4)ncnc3s2)cc1 | 1.4
Cc1nnc(SCCn2c(N3CCN(C)CC3)nc3c2c(=O)[nH]c(=O)n3C)s1 | 1.1
O=C(Cn1cccc1)NCc1cccs1 | i
CCOc1ccc(NC(=O)N(CCCN2CCOCC2)Cc2cccnc2)cc1 | 1.5
Cc1ccc(NCC(O)C(O)C(O)CO)cc1C (configuration not stated) | 0.5
Cc1ccc(-c2nn(C)c(=O)c3ccccc23)cc1CNC(=O)CN1CCOCC1 | 1.2
CCCCS(=O)Cc1ccccc1 (configuration not stated) | 0.4
COc1ccccc1N(CN1CCCC1=O)C(=O)c1c(F)cccc1Cl | i
Cc1ccc(-c2cc(C(=O)Nc3c(C#N)cnn3C)no2)cc1 | i
CCC(c1nnnn1Cc1ccco1)N1CCN(C(=O)c2ccco2)CC1 (configuration not stated) | 1.5
CCN(CC)c1ccc(NC(=O)c2ccco2)c(C)c1 | i
CCOc1ccccc1N1CCN(Cc2cccc(OC)c2O)CC1 | 1.2
Cc1cc(N2CCCC2)c(C)cc1C=O | i
O=C(c1ccccc1)N1CCCCC(Sc2nnc3ccccn23)C1=O (configuration not stated) | i
CC(=O)c1c(C)n(CC2CCCO2)c2ccc(O)cc12 (configuration not stated) | 1.4
CCc1c(C)nc2ncnn2c1N1CCC(C(=O)NCc2cccc(OC)c2)CC1 | 0.8
O=S(=O)(CCc1nc2ccccc2o1)c1ccc(Cl)cc1 | 1.3
O=C(Nc1cnc2sccn2c1=O)c1ccccc1Cl | 5.1
Cc1ccc(S(=O)(=O)NCC2CCC(C(=O)N3CCC4(CC3)OCCO4)CC2)cc1 (configuration not stated) | 2.5
O=C(CSc1ncc(-c2ccccc2)n1C1CCCC1)N1CCc2ccccc21 | i

Source: PubChem
